# H5N1 CPE: MDCK cell protection from H5N1 avian flu | cytopathic effect, luminescence, 72 h; hits give high values; no value below 0 was filed and about half of the inactive calls have no number; reference of the scale not given here | 0.07% of 96,000 active | inhibition, % at 50 µM; in the data active means inhibition above about 25%
# * = called active by the depositor; i = inactive. An excerpt (hit frequency here may not be typical).
SMILES,H5N1 CPE
Cc1ccccc1CN1C2=NCCN2c2ccccc21,i
OCCNc1nc(-c2cccnc2)nc2ccccc12,1.8
COc1ccccc1N(CC(=O)Nc1cc(C)on1)S(=O)(=O)c1ccc(Cl)cc1,0.5
CC(C)Cn1c(SCC(=O)NC2CCCc3ccccc32)nc(O)cc1=O (stereo not drawn),i
Cc1cc(C(C)(C)C)cc(S(=O)(=O)Nc2ccc(O)c(C(=O)O)c2)c1C,0.2
O=C(NCC(c1cccnc1)N1CCN(c2ccccc2F)CC1)c1ccccc1 (stereo not drawn),i
O=C(O)C(=O)/C(=C\c1cccc2ccccc12)c1ccc2ccccc2n1,i
CC(C)(C)NC(=O)C(c1ccccc1)N(C(=O)C1CSC(=O)C1)c1ccccc1 (stereo not drawn),1.4
COc1ccc(-c2nnc(SCC(=O)NC(=O)NCc3ccccc3)o2)cc1,0.1
Cc1ccc(/C=N/NC(=O)c2csc3c2CCCC3)cc1,0.1
Cc1ccc(C(=O)N2CCOCC2)cc1Cl,0.6
Cc1nc(C(=O)Nc2ccc(Cl)cc2)nn1-c1ccc([N+](=O)[O-])cc1,i
COC(=O)c1[nH]c2ccc(C)cc2c1NC(=O)Oc1ccccc1,1.6
O=C(c1ccc(F)cc1)c1c[nH]c(C(=O)NCCCN2CCOCC2)c1,i
Cn1c(NC(=O)C2CCCO2)cc(=O)n(C)c1=O (stereo not drawn),6.8
N#C/C(=C/Nc1ccccc1)c1ccsc1,i
O=C(CSc1nnc(CNC(=O)c2ccccc2F)o1)c1ccc(Cl)cc1,2.3
Cc1nnc(Nc2ccc3c(c2)ncn3C)c2ccccc12,0.5
CC(C)(C)NC(=O)NC(=O)CSc1nnc(COc2ccccc2Cl)o1,i
O=C1N=C2SCCN2/C1=C\c1ccc(Cl)cc1,1.0
Cc1nn(Cc2ccccc2)c(Cl)c1C(=O)NCc1ccc(C)n1C,i
CCOc1ccc(-n2c(=S)sc3c(=O)[nH]c(SCC(=O)NC(C)CC)nc32)cc1 (stereo not drawn),0.6
NNC(=O)c1nn(-c2ccc(Cl)cc2)ccc1=O,0.6
COc1ccc(OC)c2[nH]c(=O)c(CCNC(=O)c3ccc(Br)o3)cc12,i

# Some values from the list:
# `COC(=O)c1[nH]c2ccc(C)cc2c1NC(=O)Oc1ccccc1` – H5N1 CPE: 1.6
# `Cn1c(NC(=O)C2CCCO2)cc(=O)n(C)c1=O` (stereo not drawn) – H5N1 CPE: 6.8

# Next section
SMILES,H5N1 CPE
CCc1ccc(-c2nn[nH]n2)cc1,i
CCOC(=O)CNC(=O)CSc1nc2cccnc2n1C,0.3
CSCCC(NS(=O)(=O)c1ccc(Cl)cc1)C(=O)OCC(=O)NC12CC3CC(CC(C3)C1)C2 (stereo not drawn),2.6
c1ccc(-c2nnc(-c3ccco3)n2-c2ccccc2)cc1,0.6
O=C(CNC(=O)c1ccc(Cl)cc1)NCCCn1ccnc1,0.6
N=c1sccn1CC(=O)Nc1ccc(Cl)c(S(=O)(=O)N2CCOCC2)c1,1.0
COc1ccc(COC(=O)c2ccc(N3CCCC3=O)cc2)cc1F,i
COc1cccc(NS(=O)(=O)c2ccc3[nH]cc(C(=O)NCCCOC(C)C)c(=O)c3c2)c1,i
CC(C)n1c(SCc2ccccc2F)nc2c1c(=O)n(C)c(=O)n2C,4.4
O=C(N1CCN(c2ccccc2)CC1)C(F)(F)C(F)F,i
C#CCN1C(=O)C(O)(CC(=O)c2ccc3c(c2)OCCO3)c2ccccc21 (stereo not drawn),2.9
CCOC(=O)c1cc2occc2n1Cc1ccc(F)cc1,i
COc1ccc(OCc2nnc3n2N=C(c2ccc(C)cc2)CS3)cc1,2.2
O=[N+]([O-])c1ccccc1/C=C/C=N/n1c(-c2ccc(Cl)cc2)n[nH]c1=S,i
CCCSC1=N/C(=C\c2ccc3c(c2)OCO3)C(=O)S1,0.1
CCC(C)[C@H](NC(=O)NC1CC1)C(=O)O (stereo partly drawn),0.5
Cc1nc(-c2ccccc2O)n(S(=O)(=O)N(C)C)n1,0.9
CC(=O)c1cccc(NC(=O)CN(Cc2ccccc2)S(C)(=O)=O)c1,0.5
COc1ccc(C(C(C(=O)c2ccco2)N2CCOCC2)N2CCOCC2)cc1 (stereo not drawn),0.5
COc1ccc(NC(=O)CSc2nccc(C)n2)cc1,i
COC(=O)c1sc(N)c(C(=O)OC)c1COC(=O)C1CC(=O)N(Cc2ccco2)C1 (stereo not drawn),i
Cc1cc(C)n(-c2nnc(C)n2N)n1,i
Cn1c(=O)n(CCc2ccccc2)c(=O)c2c1ncn2Cc1ccccc1,i
NC(=O)c1cc2n(n1)C(C(F)(F)F)CC(c1ccco1)N2 (stereo not drawn),0.7
COc1cccc(C2CC(c3ccc(Cl)cc3Cl)n3nc(N)nc3N2)c1 (stereo not drawn),i
C=CCNC(=O)c1ccccc1NC(=O)c1cccc2ccccc12,0.5
Cc1nc(=S)n(-c2ccccc2)[nH]1,0.3
Cn1nccc1C(=O)c1ccc(Cl)cc1,0.4
CCC(C)n1c(-c2ccco2)nc2nc3ccccc3nc21 (stereo not drawn),i
CCOc1ccc(NC(=O)CN2CCN(CC(=O)Nc3cccc(F)c3)CC2)cc1,i
CC(C)Cc1ccc(S(=O)(=O)N2CCOCC2)cc1,1.0
COCCn1c(SCCN2CCOCC2)nc2c1c(=O)[nH]c(=O)n2C,1.7
O=C(COc1ccccc1)N1CCN(c2ncnc3c2cnn3-c2ccccc2)CC1,1.6
O=C(OCn1ncc(Cl)c(Cl)c1=O)c1cccc(C(F)(F)F)c1,i
OC(CSc1c(Cl)cccc1Cl)CN1CCN(c2ccccc2F)CC1 (stereo not drawn),i
C[C@H](C(=O)O)c1n[nH]c(=O)c2ccccc12,i
c1ccc2c(Cn3ccnc3)c[nH]c2c1,0.1
CCC(=O)N1CCN(c2ccc(NC(=O)c3c(F)c(F)c(OC)c(F)c3F)cc2)CC1,1.1
N#CCCCSc1ncccc1-c1nc2ccccc2[nH]1,0.4
O=C(NC1CCCC1)C(c1ccncc1)N(Cc1cccs1)C(=O)c1csnn1 (stereo not drawn),0.1
COc1cc(C2NC(C(=O)O)Cc3c2[nH]c2ccccc32)cc(OC)c1OC (stereo not drawn),1.4
COc1ccc(NC(=O)CN(C2CCCCC2)S(C)(=O)=O)cc1Cl,3.4
COc1ccc(OC)c(N(CC(N)=O)S(=O)(=O)c2ccc(OC)c(OC)c2)c1,0.6
Fc1ccc(Cn2c(-c3cscn3)nc3ccccc32)c(Cl)c1,i
CC1=CCC(C(=O)O)(C(=O)N/N=C/c2cccs2)C(c2ccc([N+](=O)[O-])cc2)C1 (stereo not drawn),i
CN1CC(c2ccccc2)C2(COc3ccccc3C2=O)C12C(=O)Nc1ccccc12 (stereo not drawn),3.6
O=C(Nc1ccc2c(c1)OCCO2)NC1(C(F)(F)F)Oc2ccccc2O1,1.2
O=C(NCCCN1CCOCC1)c1cnn2c(-c3ccccc3)cc(-c3ccccc3)nc12,3.8
Cc1ccc(-c2cc(C(F)F)n3ncc(C(=O)Nc4c(C)nn(Cc5ccccc5Cl)c4C)c3n2)cc1,1.8
O=C1NC(=S)N/C1=C/c1ccc(-c2c(Br)cc([N+](=O)[O-])cc2Br)o1,2.7
CCc1nc2sc3c(c2c(=O)n1NC(=O)CCl)CCCC3,1.5
O=C(CN1CCN(C(=O)c2cccc(F)c2)CC1)NC1CCCCC1,0.7
CS(=O)(=O)N(CC(=O)Nc1ccc2c(c1)OCO2)Cc1ccccc1,0.9
COc1ccc(-c2c(C)nn3c(N4CCC(C(=O)NCCN(C)C)CC4)cc(C)nc23)cc1OC,i
Cc1ccc(SC/C(O)=C(\C#N)c2nc3ccccc3s2)cc1,i
COc1ccccc1Nc1nc(N)nc(-c2oc3ccccc3c2C)n1,i
Cc1ccc(-n2c(-c3nn(C)c(C)c3Cl)n[nH]c2=S)cc1,0.8
CS/C(=N\S(=O)(=O)c1ccc(N)cc1)NS(=O)(=O)c1cccs1,0.1
CCCCC1(Cc2cccc([N+](=O)[O-])c2)C(=O)N(c2ccccc2)N(c2ccccc2)C1=O,1.4
CCCN1CCCc2cc(CN)ccc21,1.2
# Additional compounds follow.
SMILES,H5N1 CPE
CC1CC(C(F)(F)C(F)(F)F)n2nc(C(=O)O)cc2N1 (stereo not drawn),i
O=C(Cn1nnc(-c2ccncc2)n1)Nc1ccc2c(c1)CCC2,i
COCc1cc(C)nc(OCC(=O)N/N=C/c2ccc(-c3cccc([N+](=O)[O-])c3)o2)c1C#N,0.3
COC(=O)[C@H](C)NC(=O)Nc1ccc(Oc2ccccc2)cc1,i
Cc1c(Br)cc(C(=O)NC2CCCCC2)c(C)c1C,1.0
CCOC(=O)c1c(C#N)cnn1-c1ccc(C)cc1,2.2
COc1ccc(-c2noc(CCC(=O)Nc3ccc4c(c3)OCCO4)n2)cc1,i
COc1ccc(C2=NOC(Cn3c(Cc4ccc(Cl)cc4)nc4c3c(=O)n(C)c(=O)n4C)C2)cc1 (stereo not drawn),i
CCOC(=O)N1CCC(NC(=O)c2cc3c(-c4ccccc4F)nn(C)c3s2)CC1,0.8
COCCCNC(NC(=O)c1ccc(C)cc1)C(Cl)(Cl)Cl (stereo not drawn),1.3
COC(=O)CC1Sc2ccccc2NC1=O (stereo not drawn),i
CN(C)C(=O)CSc1nnc(-c2cc(-c3cccs3)nc3ccccc23)o1,9.8
CC1=NNC(=O)C1CCC(=O)N/N=C\c1ccccc1[N+](=O)[O-] (stereo not drawn),i
CC(=O)c1cc(C)ccc1OC(=O)c1cccc2nc(C)oc12,1.1
Cc1nc2sc(C(c3cccc(F)c3)N3CCN(C(=O)c4ccco4)CC3)c(O)n2n1 (stereo not drawn),2.5
Cn1c(=O)c2c(-c3ccccc3)n(C3CCCCC3)cc2n(C)c1=O,i
CCCCOCCCn1c(-c2ccco2)nc2nc3ccccc3nc21,0.7
COc1ccc(C(=O)NCc2n[nH]c(=S)n2-c2ccccc2)cc1OC,1.3
CC(=O)Nn1c(COc2ccccc2C)nc2ccccc2c1=O,i
Cc1ccc(/C=N/n2cnc3sc4c(c3c2=O)CCCC4)o1,2.5
O=C(OCC1OC(n2cnc3c(N(C(=O)c4ccccc4)C(=O)c4ccccc4)ncnc32)C(O)C1F)c1ccccc1 (stereo not drawn),1.5
CCCC(=O)Nc1cc(C)c(NC(=O)c2ccccn2)cn1,i
CCCCCOC(=O)c1ccc(N2C(=O)C3C4C=CC(C4)C3C2=O)cc1 (stereo not drawn),i
CC(NC(=O)Cc1cccs1)C(c1cccs1)N1CCN(c2ccccc2F)CC1 (stereo not drawn),3.0
Cc1cc(NS(=O)(=O)c2ccccc2)c(C)c(Cl)c1O,i
C=CCNC(=S)NNC(=O)c1cccn(Cc2cccc(Cl)c2)c1=O,0.2
Cn1c(=O)c2c(nc(NCCc3ccccc3)n2Cc2ccccc2)n(C)c1=O,1.5
CCOC(=O)c1[nH]c2ccc(C)cc2c1N=CN(CC)CC,0.1
C=CCc1ccc(OCc2ccc(C(=O)OC)o2)c(OC)c1,i
O=C(O)/C=C/c1cn(Cc2ccccc2)nc1-c1ccccc1,i
c1ccc2c(c1)OCC(c1nnc3n1-c1ccccc1SC3)O2 (stereo not drawn),i
COC(=O)C1=C(C)N(CC(C)C)C(=O)C1,i
O=C(N1CCOCC1)N1CCOCC1,i
O=C(CSc1nnc(COc2ccccc2)n1-c1ccccc1)c1cccs1,1.0
CCOC(=O)COc1ccccc1-c1ccno1,0.3
CCn1c(NCc2cc(Br)ccc2NS(=O)(=O)c2ccc(C)cc2)nc2ccccc21,i
COCC(=O)/C=C1\Sc2ccccc2N1C,4.8
CC(C)(C)NC(=O)CN(Cc1cccnc1)C(=O)c1csnn1,i
OC(CNc1nc2ccccc2s1)c1ccccc1 (stereo not drawn),i
CCCn1c(=N)c(C(=O)NCc2ccc3c(c2)OCO3)cc2c(=O)n3cccc(C)c3nc21,i
CC(=O)c1ccc(-n2c(CCC(=O)O)ccc2-c2cccs2)cc1,i
Cc1cc(C)nc(N2CCCC(C(=O)NCCc3cccc(F)c3)C2)n1 (stereo not drawn),0.9
CCOP(=S)(OCC)c1ccc(N(C)C)cc1,i
Cc1cc(Nc2nc3ccccc3nc2Cl)n(-c2ccccc2)n1,6.1
Cc1oc2ccc(OC(=O)N(C)C)cc2c1C(=O)OC(C)C,i
COc1ccc(CN(C(=O)c2nsc(Cl)c2Cl)C(C(=O)NC2CCCCC2)c2ccc(OC)cc2)cc1 (stereo not drawn),i
CC(=O)NC1(c2ccc(F)cc2)CCN(C(=O)Nc2ccc(F)cc2F)CC1,i
CCc1cccc(CC)c1NC(=O)C1SC(=Nc2ccccc2C)C(c2nc3ccccc3s2)=C1N (stereo not drawn),i
Cc1ccc(SC(C)C(=O)Nc2ncn[nH]2)cc1 (stereo not drawn),1.1

# Part of the list above in order of molecular weight, highest first:
SMILES,H5N1 CPE
COc1ccc(CN(C(=O)c2nsc(Cl)c2Cl)C(C(=O)NC2CCCCC2)c2ccc(OC)cc2)cc1 (stereo not drawn),i
CCc1cccc(CC)c1NC(=O)C1SC(=Nc2ccccc2C)C(c2nc3ccccc3s2)=C1N (stereo not drawn),i
CCn1c(NCc2cc(Br)ccc2NS(=O)(=O)c2ccc(C)cc2)nc2ccccc21,i
CCCn1c(=N)c(C(=O)NCc2ccc3c(c2)OCO3)cc2c(=O)n3cccc(C)c3nc21,i
O=C(CSc1nnc(COc2ccccc2)n1-c1ccccc1)c1cccs1,1.0
CC(=O)NC1(c2ccc(F)cc2)CCN(C(=O)Nc2ccc(F)cc2F)CC1,i
Cn1c(=O)c2c(nc(NCCc3ccccc3)n2Cc2ccccc2)n(C)c1=O,1.5
C=CCNC(=S)NNC(=O)c1cccn(Cc2cccc(Cl)c2)c1=O,0.2
Cc1cc(C)nc(N2CCCC(C(=O)NCCc3cccc(F)c3)C2)n1 (stereo not drawn),0.9
Cc1cc(Nc2nc3ccccc3nc2Cl)n(-c2ccccc2)n1,6.1
CC(C)(C)NC(=O)CN(Cc1cccnc1)C(=O)c1csnn1,i
c1ccc2c(c1)OCC(c1nnc3n1-c1ccccc1SC3)O2 (stereo not drawn),i
Cc1oc2ccc(OC(=O)N(C)C)cc2c1C(=O)OC(C)C,i
O=C(O)/C=C/c1cn(Cc2ccccc2)nc1-c1ccccc1,i
C=CCc1ccc(OCc2ccc(C(=O)OC)o2)c(OC)c1,i
CCOC(=O)c1[nH]c2ccc(C)cc2c1N=CN(CC)CC,0.1
OC(CNc1nc2ccccc2s1)c1ccccc1 (stereo not drawn),i
Cc1ccc(SC(C)C(=O)Nc2ncn[nH]2)cc1 (stereo not drawn),1.1
COCC(=O)/C=C1\Sc2ccccc2N1C,4.8
COC(=O)C1=C(C)N(CC(C)C)C(=O)C1,i
O=C(N1CCOCC1)N1CCOCC1,i

# Screening data as filed in PubChem BioAssay.
